Screening results deposited in PubChem by ICCB-Longwood Screening Facility, Harvard Medical School.
GIV-Gai inh – inhibitors of GIV peptide binding to Galpha-i3, primary screen, biochemical, fluorescence polarization, FITC-GIV GBA peptide, rat Galphai3; Guanine nucleotide-binding protein G(i) subunit alpha-3 (Rattus norvegicus), P08753; 90 min; stronger effect = lower value; scaled: aluminum fluoride 0%, vehicle 100%; percent of control (FP), % (no concentration beside the values); hit rate 0.42% among 210,000;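 active = replicate mean at 85% of control or lower, very high polarization wells dropped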;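 note: wells of about 15 µL received 100 nL stock; the first replicate is given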
Target sequence (P08753 whole entry, looked up): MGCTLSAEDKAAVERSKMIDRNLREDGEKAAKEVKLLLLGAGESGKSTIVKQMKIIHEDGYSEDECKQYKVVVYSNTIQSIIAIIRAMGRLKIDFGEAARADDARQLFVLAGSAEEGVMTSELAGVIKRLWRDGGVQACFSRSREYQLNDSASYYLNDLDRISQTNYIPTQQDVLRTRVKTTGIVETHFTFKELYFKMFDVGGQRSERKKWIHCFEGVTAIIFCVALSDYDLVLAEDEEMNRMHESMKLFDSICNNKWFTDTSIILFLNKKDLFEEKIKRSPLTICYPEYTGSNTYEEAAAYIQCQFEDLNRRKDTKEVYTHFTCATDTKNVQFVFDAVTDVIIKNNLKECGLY
Numbers without * were called inactive. Some of the compounds tested, so the mix of outcomes need not match the whole.

molecule	GIV-Gai inh
Cc1cccc(CNC2=NCCNC23CCCCC3)c1	104.6
Cc1[nH]nc(-c2cc(S(=O)(=O)NCCc3ccccc3)c(C)s2)c1C	98.7
Cc1ccc(-n2cc(-c3ccccc3)c3c(NCCc4ccc(S(N)(=O)=O)cc4)ncnc32)cc1Cl	122.6
CCOc1ccc(-n2c(=S)sc3c2nc(SCC(=O)O)n2c4ccccc4nc32)cc1	108.9
CC1=C(c2ccc(Cl)cc2)S(=O)(=O)N=C1N1CCC(NC(=O)NC(C)(C)C)CC1	104.2
Cc1nn(-c2nc3ccccc3o2)c2c1C(c1cccnc1)CC(=O)N2 (centres undefined)	104.3
O=C(Cn1c(N2CCCCC2)nc2ccsc2c1=O)NCCC1=CCCCC1	101.7
O=C(NC1CCCC1)c1cn2ccncc2n1	121.7
CCOc1ccc(/C=C/C(=O)Nc2ccc(S(=O)(=O)Nc3nc(C)cc(C)n3)cc2)cc1	98.7
Nc1c(C(=O)Nc2ccc([N+](=O)[O-])cc2)sc2nc3c(c(-c4ccco4)c12)CCCC3	101.8
Cc1ccc(-c2ncccc2C(=O)N2CCC(C(=O)N3CCOCC3)CC2)cc1	100.5
Cc1ccc(-c2noc(C(=O)N3CCOCC3)n2)cc1S(=O)(=O)N1CCN(c2ccccc2)CC1	98.4
CCc1onc(C)c1C1CCCN1Cc1cn[nH]c1-c1ccccc1 (centres undefined)	119.5
CCCOc1ccc(C2C(C(=O)OCC)=CN(Cc3ccc(OC)c(OC)c3)C=C2C(=O)OCC)cc1OC	105.1
CCCN1C(=O)c2cc(S(=O)(=O)N3CCCCC3CC)ccc2Oc2cccnc21 (centres undefined)	105.0
COCc1cc(C)nc2sc(-c3ccc([N+](=O)[O-])cc3)c(NC(=O)c3ccco3)c12	108.8
Cc1c(C(=O)Nc2cnc3ccccc3c2)sc2ncn(CC(=O)Nc3cccc(C(F)(F)F)c3)c(=O)c12	111.6
CCN1CCN(Cc2nc3nc(C)cc(N4CCCC4)n3n2)CC1	95.6
CCC(Sc1nc2cc(C(=O)NCc3ccco3)ccc2c(=O)n1Cc1ccco1)C(=O)NCc1cccnc1 (centres undefined)	110.4
CCOc1cc(C2Nc3ccc4ccccc4c3C3=C2C(=O)CC(C)(C)C3)ccc1OCc1ccccc1 (centres undefined)	110.3
COC(=O)c1ccc(NC(=O)CSc2nnc(NC(=O)Nc3ccc(C)cc3)s2)cc1	98.7
COc1ccc(C(=O)[C@@H]2[C@@H](c3ccc(Cl)cc3)C(C#N)(C#N)[C@H]3C=Cc4ccccc4N23)cc1	121.0
COc1ccc(-c2cc(N3CCN(C(=O)Nc4cccc(OC)c4)CC3)ncn2)cc1	97.5
Cc1cccc(NC(=O)c2nc3ccccc3n(C)c2=O)c1	105.2
O=S(=O)(c1ccc(F)cc1)N1CCC2(CC1)NCCN=C2NCc1ccccc1	102.2
Cc1cccc(NC2=NC(=S)N(c3cccc(C)c3)C23CCCCC3)c1	103.7
CCCOc1ccc(-c2nn3c(=O)c(NC(=O)c4cccc(C)c4)cnc3o2)cc1	104.8
CCOC(=O)c1c(NC(=O)C(C)Sc2nnc(CNC(=O)c3ccco3)n2-c2ccc(F)cc2)sc2c1CCCCC2 (centres undefined)	106.7
COC(=O)C1=CN(c2ccc(N(C)C)cc2)c2cc(Br)ccc2S1(=O)=O	98.2
Cc1ccc(-n2nc(C)c3c(=O)n(CC(=O)N4CCN(c5cc(Cl)ccc5C)CC4)ccc32)cc1	105.9

molecule	GIV-Gai inh
CCOC(=O)C1=C(c2ccccc2)OC(N)=C(C#N)C1c1ccccc1C(F)(F)F (centres undefined)	104.7
COc1ccccc1Cn1c(-c2ccccc2)cn2c3c(=O)n(C)c(=O)n(C)c3nc12	112.9
O=C(CNS(=O)(=O)c1cc(-c2noc(C3CCC3)n2)cs1)Nc1ccc(Cl)cc1	101.7
CCOC(=O)CSc1nc2sc(C(=O)OCC)c(C)c2c(=O)n1Cc1ccc2c(c1)OCO2	106.7
Cc1ccc(N2C(=O)/C(=C/c3ccc(Cl)cc3)C=C2c2ccccc2)cc1[N+](=O)[O-]	103.0
Clc1ccccc1-n1ncc2c(N3CCOCC3)ncnc21	97.1
Cc1ccccc1-n1c(SCc2nc(-c3ccccc3)no2)nc2cc3c(cc2c1=O)OCO3	100.6
Brc1ccc(/C=C2/c3ccccc3-c3nc4ccccc4cc32)cc1	101.9
Cc1cc2c(cc1CNC(=O)Cn1cc(C(=O)C3CC3)c3ccccc31)OCCCO2	107.6
OC(CN1CCCCC1)Cn1c(-c2ccccc2)c(-c2ccccc2)c2ccc3ccccc3c21 (centres undefined)	106.3
Cc1ccc(-c2ccc(-n3nc(C)c(S(=O)(=O)NC4CC4)c3C)nn2)cc1	104.8
CN(C(=O)c1cccc(Oc2cc(-c3ccccc3)ncn2)c1)C1CCCCC1	98.9
COc1ccc(OC)c(C2C(N3C(=O)c4c(Cl)c(Cl)c(Cl)c(Cl)c4C3=O)C(=O)N2c2cccc(C(F)(F)F)c2)c1 (centres undefined)	109.5
C=CCn1c(SCC(=O)N2CCc3cc(Br)ccc32)nnc1-c1cc2ccccc2o1	100.4
CC(=O)OCC12COC(c3ccccc3OC(C)=O)C(C(C)=CC1C)C2C (centres undefined)	103.3
CCCCC(CC)COC1(c2ccccc2)OC(=O)c2ccccc21 (centres undefined)	106.0
Cc1ccc2c(c1)C(C)CC(C)(C)N2C(=O)NC1CCCCC1 (centres undefined)	109.0
COC(=O)c1c(C)oc2ccc(N(C(=O)c3ccc([N+](=O)[O-])cc3)S(=O)(=O)c3ccc(Cl)cc3)cc12	104.2
O=C(c1nc(-c2csc(S(=O)(=O)N3CCOCC3)c2)no1)N1CCOCC1	94.9
CCc1ccc(NC(=O)Nc2ccccc2-c2cc3ccccc3[nH]2)cc1	105.6
CCC(=O)Nc1ccc(-c2cc(C(=O)N3CCN(c4ccc(Cl)cc4)CC3)c3ccccc3n2)cc1	111.2
O=C1CC(c2ccc(F)c(Br)c2)c2cnn(-c3ccccc3)c2N1 (centres undefined)	102.8
CCC(C)NC(=O)CCc1nc(CS(=O)(=O)c2ccccc2)no1 (centres undefined)	103.9
CC1(C)CC(=O)C2=C(C1)NC1=C(C(=O)c3ccccc31)C2c1ccccc1 (centres undefined)	120.1
COc1ccc(CN2CCCC2c2cc(C(C)C)on2)cc1OC (centres undefined)	105.0
CCCS(=O)(=O)c1c(S(=O)(=O)CCC)c2cc(-c3ccccc3)ccn2c1C(=O)c1ccccc1	100.8
CC1C(=O)N2CCCc3cc(S(=O)(=O)N4CCc5ccccc5C4)cc1c32 (centres undefined)	105.5
COc1cccc(CSc2ccc(S(=O)(=O)N3CCOCC3)cc2C(=O)N2CCC(C)CC2)c1OC	107.8
Cc1ccc2c(c1)-c1c(ssc1=S)C(C)(C)N2C(=O)c1ccc([N+](=O)[O-])cc1	106.8
COc1cccc(CNC(=O)c2ccc3nc4ccc(Cl)cc4c(=O)n3c2)c1	110.1

molecule	GIV-Gai inh
CC1(C)CC(=O)C2=C(C1)Nc1ccc3ccccc3c1C2c1ccc(Cl)c(Cl)c1 (centres undefined)	102.8
CC(C)c1cc(C2CCCN2Cc2ccccc2F)no1 (centres undefined)	95.6
COc1cc(C2C3=C(Nc4c2c(=O)n(C)c(=O)n4C)c2ccccc2C3=O)cc(OC)c1OC (centres undefined)	103.7
COc1cccc(C(=O)N2CCN(C)c3ccccc32)c1	100.7
CC(C)(C)c1ccc(S(=O)(=O)Nc2cc(Br)c3oc4c(c3c2)C(=O)CCC4)cc1	104.2
CCOC(=O)c1ccc(-n2c(=S)sc3c(=O)n(Cc4ccco4)c(SCC(=O)N(CC)CC)nc32)cc1	115.5
CCOc1ccc(C2c3[nH]c4ccccc4c3CCN2C(=O)c2ccco2)cc1 (centres undefined)	121.1
CC(=O)C1=NN(c2ccc([N+](=O)[O-])cc2)C2(S1)c1ccccc1C(c1cc(C)ccc1C)=NN2c1ccccc1 (centres undefined)	106.7
Nc1c(C(=O)c2ccc(Br)cc2)sc2nc3c(cc12)CCCCC3	105.3
COc1ccc(NC(=O)c2nnc(C3CCN(C(=O)C4CC4)CC3)s2)cc1	102.5
Cc1c(Nc2ncnc3c2cnn3-c2ccccc2)c(=O)n(-c2ccccc2)n1C	102.1
CNC(=O)N1c2ccccc2NC2=C(C(=O)CC(C)(C)C2)C1c1ccc(F)cc1 (centres undefined)	99.2
COc1ccc(C(=O)Nc2cc(C(=O)NCc3cccc(Cl)c3)ccc2N2CC3CC(C2)c2cccc(=O)n2C3)cc1 (centres undefined)	105.0
CCOC(=O)c1[nH]c(C)c(CCC(=O)N2CCCC(C(=O)NC(C)C)C2)c1C (centres undefined)	99.3
C=CCOc1ccc(C2CC(=O)Nc3c2cnn3-c2nc3ccccc3s2)cc1OCC (centres undefined)	97.5
CN(C)CCn1c2c(c3ccccc31)CCCn1cnnc1-2	109.1
CCOC(=O)c1c(CN(CC)CC)n(-c2ccccc2)c2cc(Br)c(O)cc12	102.6
COC(=O)c1ccc(CN2CCCC2c2cc(C)on2)cc1 (centres undefined)	102.5
Cc1ccc(C(=O)Nc2ccc(-c3noc(-c4cccc(Cl)c4)n3)cc2)cc1[N+](=O)[O-]	112.7
Cn1c(SCC(=O)N2CCCC2)nc2cc(-c3ccccc3)sc2c1=O	90.8
O=C(C1=COCCO1)N1CCN(c2nc3c(F)cc(F)cc3s2)CC1	104.8
CC(C)OCC1OC2OC(C)(C)OC2C2OC(C)(C)OC12 (centres undefined)	108.9
O=C(NCC1CCCO1)c1ccc(Nc2ncc(-c3cccc(F)c3)cn2)cc1 (centres undefined)	110.5
Cc1cc(N2CCN(C)CC2)nc(N2CCN(C(=O)c3ccc(Br)cc3)CC2)n1	107.6
COc1cccc(C2C(C#N)=C(N)Oc3n[nH]c(-c4ccc(C)cc4)c32)c1OC(=O)N1CCOCC1 (centres undefined)	111.1
CCCCN(C)S(=O)(=O)c1cc(-c2nnc(C(C)C)o2)co1	97.4
CCc1cc(C2CCCN2C(=O)Nc2cc(C)cc(C)c2)on1 (centres undefined)	103.1
COC(=O)C1(O)CC(c2ccc(Cl)cc2)=NN1C(=O)c1ccccc1 (centres undefined)	106.8
Cc1ccc(C2(O)CN(c3ccccc3)C3=[N+]2CCS3)cc1 (centres undefined)	106.9
COc1ccc(OC)c(CN2CCCC2c2c(C)noc2C)c1 (centres undefined)	105.9

molecule	GIV-Gai inh
COCCn1c(SCc2cc(=O)n3ccccc3n2)nc2c(-c3ccccc3)cn(C)c2c1=O	101.1
Cc1nn2c(c1-c1ccc(Cl)c(S(=O)(=O)N3CCOCC3)c1)NC(=O)CCC2=O	103.2
O=C(CCC(=O)N1Cc2cccn2-c2ccccc21)NCCc1c[nH]c2ccc(Cl)cc12	106.2
CN(C)c1ccc(/C=c2\sc3n(c2=O)C(c2ccccc2)C(c2ccccc2)=NN=3)cc1 (centres undefined)	123.1
CCOC(=O)C1=C(C)NC2=C(C(=O)C(C(=O)OCC)C(c3ccccc3OC)C2)C1c1ccc(N(C)C)cc1 (centres undefined)	105.6
COc1ccccc1NC(=O)C1=C(C)NC(SCC(=O)Nc2cc(C)ccc2C)=C(C#N)C1c1ccccc1 (centres undefined)	99.1
CCC(Sc1nc(NCCOC)c2ccccc2n1)C(=O)NCc1cccnc1 (centres undefined)	106.5
COc1ccccc1NC(=O)c1sc2nc(C)nc(N3CCCCC3)c2c1C	112.8
COc1ccc([C@@H]2[C@@H](C(=O)c3ccc(C)cc3)N3c4ccc(Cl)cc4C=C[C@@H]3C2(C#N)C#N)cc1OC	109.0
CCOC(=O)c1ccc(N2C(=O)C3C(c4ccc(Cl)cc4Cl)OC4(C(=O)c5ccccc5C4=O)C3C2=O)cc1 (centres undefined)	100.8
Cc1ccc(S(=O)(=O)Nc2ccc3nncn3n2)cc1	103.8
Cc1cc(Cl)ccc1NS(=O)(=O)c1cc(-c2nc(C)c(C)s2)sc1C	106.7
O=C1C2CC=C(Cl)CC2C(=O)N1CN(CN1C(=O)C2CC=C(Cl)CC2C1=O)C1CCCCC1 (centres undefined)	105.5
COc1ccc(C2C(CC(=O)O)=C(Nc3ccccc3)C(=O)N2c2ccccc2)cc1 (centres undefined)	115.0
Cc1ccc(-c2ccc(-n3nc(C)c(S(=O)(=O)N4CCCC4)c3C)nn2)cc1	102.6
O=S(=O)(c1ccc(F)cc1)N1CCn2cccc2C1c1ccccc1 (centres undefined)	100.0
Cc1nnc(-c2csc(S(=O)(=O)N3CCCC3)c2)o1	101.1
O=C(COc1ncnc2onc(-c3ccc(F)cc3)c12)NC1CCS(=O)(=O)C1 (centres undefined)	104.8
CC(=O)Oc1c(Cl)cc(C2C3=C(CC(C)(C)CC3=O)OC3=C2C(=O)CC(C)(C)C3)cc1Cl	106.5

Sorted by the number under GIV-Gai inh (smallest number first): 6 from the list above.
SMILES	GIV-Gai inh
Cc1nn2c(c1-c1ccc(Cl)c(S(=O)(=O)N3CCOCC3)c1)NC(=O)CCC2=O	103.2
Cc1ccc(S(=O)(=O)Nc2ccc3nncn3n2)cc1	103.8
O=C(CCC(=O)N1Cc2cccn2-c2ccccc21)NCCc1c[nH]c2ccc(Cl)cc12	106.2
CCC(Sc1nc(NCCOC)c2ccccc2n1)C(=O)NCc1cccnc1 (centres undefined)	106.5
COc1ccc([C@@H]2[C@@H](C(=O)c3ccc(C)cc3)N3c4ccc(Cl)cc4C=C[C@@H]3C2(C#N)C#N)cc1OC	109.0
CN(C)c1ccc(/C=c2\sc3n(c2=O)C(c2ccccc2)C(c2ccccc2)=NN=3)cc1 (centres undefined)	123.1
